# Compound activity (PubChem BioAssay)
# WNV protease inh = inhibitors of WNV NS2B-NS3 protease, primary screen, biochemical, fluorogenic substrate; fluorogenic substrate Ex360/Em465; stronger effect = lower value; 0.18% of 65,000 active; Genome polyprotein (West Nile virus), P06935; z-score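 (tested at a level between 10 and 100 µM)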; AID 577, 2007;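 active = z-score at -3 or under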;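 note: score is relative to mean and spread of the compound wells of a plate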
# Target sequence (P06935 1371-1501 limits assumed): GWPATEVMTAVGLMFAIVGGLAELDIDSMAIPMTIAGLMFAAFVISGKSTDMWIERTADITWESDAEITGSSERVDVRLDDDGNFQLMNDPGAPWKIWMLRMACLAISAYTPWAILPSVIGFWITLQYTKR
# Target sequence (P06935 1502-1679 limits assumed): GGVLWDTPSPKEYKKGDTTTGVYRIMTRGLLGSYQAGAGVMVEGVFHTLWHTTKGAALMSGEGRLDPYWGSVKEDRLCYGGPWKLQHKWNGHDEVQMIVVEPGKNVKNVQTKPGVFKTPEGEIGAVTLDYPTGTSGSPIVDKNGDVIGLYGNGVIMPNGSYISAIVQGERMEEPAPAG
# Hsc70 = Hsc70 inhibitors, probe displacement, primary screen, biochemical, fluorescence polarization (AID 568). displacement, % at 20 µM; hits with a dose series show IC50 in µM. Hsc70 fluorescence polarization, probe displacement; higher % means a stronger effect; strong numbers were not always called active. 83,000 tested, under 10 active;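 active = displacement above 50% without optical interference and an IC50 on retest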;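 note: ATPase domain with a fluorescein-tagged ATP probe; 0% = vehicle and 100% = excess ADP; read after one hour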
# MT1-MMP reporter = inhibitors of MT1-MMP promoter transcription, cell-based, luciferase reporter, luminescence (AID 618) | calls from a first round at 10 µM; hits with a dose series show EC50 in µM | MT1-MMP promoter luciferase reporter cells, luminescence | 0.62% of 87,000 active;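 active = over half of the reporter light lost at 10 µM or EC50 under 50 µM; inactive = the rest and hits that failed the dose series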;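 note: actives suppress MT1-MMP promoter-driven transcription so potencies describe inhibitors; HT1080 fibrosarcoma cells; overnight exposure; toxic or luciferase-blocking compounds were not removed from the actives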
# An asterisk follows results filed as active; i = inactive; · = no result given; + = active, no number.
Molecule	Hsc70	WNV protease inh	MT1-MMP reporter
Cc1ccc(C(=O)Nc2ccc(O)c(C(=O)O)c2)o1	4.9%	-0.36	i
Cc1ccc(-c2nc(C3CCN(S(C)(=O)=O)CC3)no2)cc1	4.0%	-0.22	i
O=c1c2cc3c(cc2[nH]c(=S)n1CCN1CCOCC1)OCO3	7.1%	-1.1	i
CCOC(=O)C1CCN(C(=O)Cn2cc(C(=O)c3ccco3)c3ccccc32)CC1	5.1%	-0.93	i
C(=C\c1ccccc1)/CSc1nnc(-c2cccnc2)n1Cc1ccco1	4.8%	-0.68	i
O=C(CSc1ccccc1)Nc1ccc(N2CCOCC2)cc1	0.5%	·	i
COc1ccc(CC(=O)N2CCOCC2)cc1OC	1.2%	-0.09	i
O=S(=O)(c1ccc(OCC(O)CN2CCN(c3ccccc3O)CC2)cc1)N1CCOCC1 (centres undefined)	2.2%	0.07	i
CCNCCNC(=O)c1c(O)c2ccccc2n(CC)c1=O	2.9%	0.27	i
COc1ccc(CCN2C(=NC(=O)CC(C)C)SC3CS(=O)(=O)CC32)cc1 (centres undefined)	-3.6%	·	i
CCOC(=O)C1CCN(c2c(NCCN3CCN(c4ccccc4)CC3)c(=O)c2=O)CC1	1.9%	-2.8	i
CCOc1ccc(C(=O)Nc2ccc(Cl)cn2)cc1Cl	3.9%	1.2	i
CCCCNC(=O)c1ccc2c(c1)N(CC)C(=O)c1ccccc1S2(=O)=O	2.0%	-1.3	i
CCC(=O)Nc1cccc(NC(=O)CSc2nnc(-c3ccc(NS(C)(=O)=O)cc3)n2C)c1	3.8%	-0.41	i
CC(=O)Nc1ccc(C(=O)OCCC(C)C)cc1	-3.4%	1.2	i
CC(C)Cc1nc(N2CCCCC2)c(C#N)c2c1CCC2	-6.7%	-0.32	i
CC(NC(=O)c1ccco1)c1cccc2ccccc12 (centres undefined)	-6.0%	·	i
O=C1C2C3CCCC3=C3CCCC3C2C(=O)N1c1ccc(F)cc1 (centres undefined)	12%	-0.12	i
Nc1c(Cl)cc2c(c1Oc1ccccc1)C(=O)c1ccccc1C2=O	-0.8%	·	i
NC(=O)C1CCN(CC(=O)Nc2ccccn2)CC1	-1.9%	-0.07	i
O=C(Nc1nnc(-c2ccccc2)o1)c1nc2ccccc2s1	0.1%	0.59	i
CCOC(=O)c1c(C)nc2c3ccccc3ccn12	0.1%	-0.43	i
COc1ccc(C(CNC(=O)c2cccc(N(C)C)c2)N2CCCC2)cc1 (centres undefined)	2.2%	-1.4	i
C=CCN1C2CCCC1CC(NC(=O)Nc1cccc(C(C)=O)c1)C2 (centres undefined)	-0.7%	-0.9	i
COc1ccc(C2=CC(=O)OC3(CCCCC3)O2)cc1	-0.1%	-0.4	i
O=C(NCCN1CCN(C(=O)c2cccs2)CC1)C(=O)Nc1ccc(Br)cc1	3.2%	·	i
Cc1c(CCC#N)c(N2CCCCC2)n2c(nc3ccccc32)c1C#N	-40%	-1.3	i
O=C(NC(NCc1ccccn1)(C(F)(F)F)C(F)(F)F)c1ccco1	1.8%	1.3	i
COc1ccc(NC(=O)C2CCCCN2N)cc1OCC(C)C (centres undefined)	5.1%	·	i
CCCc1c(O)nc(SCC(=O)NCCc2ccc(OC)c(OC)c2)[nH]c1=O	6.7%	-1	i
O=C(O)CCC(=O)N1CCN(c2nc(-c3ccccc3Cl)c3cc(Br)ccc3n2)CC1	2.6%	·	i
CCN(CC)CCCN1C(=O)C(O)=C(C(=O)c2ccc(C)o2)C1c1ccc(C)o1 (centres undefined)	7.0%	-1.8	i
C=C(C)CSc1nc(N)c(C#N)c(-c2ccc(C)cc2)c1C#N	0.9%	-0.27	i
Cc1cc(N2CCOCC2)n2ncc(-c3ccccc3)c2n1	-4.6%	·	3.6µM*
Cc1cccc(N2CCN(C(=O)n3ccnc3)CC2)c1C	0.5%	-1.2	i
COc1ccc(-n2nnnc2SCc2nc3ccccc3s2)cc1	-3.4%	·	i
CC(C)(C)NC(=O)CN(C(=O)c1ccc(CN2CCOCC2)o1)c1ccc2c(c1)OCCO2	5.0%	-1.1	i
C=CCOc1c(CNc2ncn[nH]2)cccc1OC	0.2%	·	i
COc1cc(C)nc(SCC(N)=O)n1	-6.7%	-0.36	i
COC(=O)c1nc(NC(=O)C(C)C)n[nH]1	-5.5%	0.12	i
COc1ccc(-c2nc3ccccc3o2)cc1NC(=O)c1ccc(Br)o1	3.9%	-0.28	i
CCOc1ccc(C(=O)NCC(=O)OC2CCOC2=O)cc1OCC (centres undefined)	-1.3%	·	i
O=C(CNCCO)NC12CC3CC(CC(C3)C1)C2	3.5%	-0.72	i
CCOC(=O)c1ccc(-n2c(C)nc3ccccc3c2=O)cc1	3.2%	-0.51	i
CCN=C1SC(CC(=O)Nc2ccc(N3CCOCC3)cc2)C(=O)N1CC (centres undefined)	-1.3%	2.1	i
CCN(CC)c1ccc(NC(=O)c2cccc(C)c2OC)c(C)c1	-12%	-0.34	i
NC(=O)C1CCN(C(=O)CCSc2ccccc2)CC1	-3.4%	·	i
COc1ccccc1OCC(=O)NC1CCCCCC1	-3.2%	-0.01	i
O=C(NCCSc1ccccc1)c1ccccc1	0.7%	-0.12	i
CCSc1cc(C)nc2c(-c3ccc(Cl)cc3)c(C)nn12	-4.2%	·	i
CCCc1cc(=O)[nH]c(SCC(=O)Nc2ccc(OC(F)F)cc2)n1	0.5%	0.25	i
CC(C)n1c(CNC(=O)c2ccccc2)nc2ccccc21	-1.9%	0.63	i
CCCCCC1CC(CC(=O)NC(=S)Nc2ccc([N+](=O)[O-])cc2)C(=O)O1 (centres undefined)	-8.4%	·	i
COc1ccc(Cn2c(CCC(=O)Nc3ccc(C)c(C)c3)nc3cccnc32)cc1	2.6%	·	i
O=c1c2cc(-c3ccccc3)sc2ncn1-n1cccc1	2.1%	·	i
CCCC(=O)Nc1sc2c(c1C#N)CCCC2	-3.2%	-0.06	i
COc1ccc(OC)c(NC(=O)CCN2CCN(c3ccccc3)CC2)c1	0.3%	-0.21	i
O=C(Cn1c(=O)sc2ccccc21)N1CCOCC1	4.4%	0.13	i
CC(OC(=O)CCc1nc2ccccc2[nH]c1=O)C(=O)c1ccccc1 (centres undefined)	1.1%	0.25	i
CC(C)N1CCC2(CC1)N=C(c1ccc3c(c1)OCO3)CC(c1cc(Cl)ccc1O)N2 (centres undefined)	-6.8%	-0.18	i

# Further records:
Molecule	Hsc70	WNV protease inh	MT1-MMP reporter
COc1ccccc1C(c1nnnn1CCc1ccccc1)N1CCN(c2ccccc2)CC1 (centres undefined)	-5.8%	0.01	i
O=C(Cn1c(NCCCO)nc2ccccc21)c1cccc(Br)c1	-0.7%	0.4	i
CC(=O)CC(=O)Nc1ccccc1NC(C)=O	2.9%	-0.85	i
Cc1nn2c3ccccc3nc2n(C)c1=O	-7.1%	1.2	i
NS(=O)(=O)c1ccc(CCNc2cc(=O)n(Cc3ccc(F)cc3)c(=O)[nH]2)cc1	-0.9%	-0.16	i
CCN1CCN(Cc2nc3c(c(=O)n(C)c(=O)n3C)n2CCc2ccccc2)CC1	-1.3%	0.55	i
O=C(NCCCNC(=O)c1ccco1)c1ccco1	-0.4%	-0.3	i
Cc1nnc(SCC(=O)Nc2ncc3c(n2)CC(c2ccccc2)CC3=O)s1 (centres undefined)	6.4%	·	i
CCOC(=O)N1CCC(NC(=O)CSc2cc(=O)n(CC)c3ccccc23)CC1	2.7%	0.04	i
O=C(c1ccco1)N1CCN(C(=O)c2cnn3c2NC(c2cccs2)CC3C(F)(F)F)CC1 (centres undefined)	4.8%	-1.6	i
COc1cccc(C(=O)CSc2nnc(CNS(C)(=O)=O)n2-c2ccc(C)cc2)c1	0.6%	1.5	i
O=C1c2ccccc2C(=O)N1SC1CCCCC1	0.9%	0.11	i
COc1cccc(C2/C(=C(/O)c3ccncc3)C(=O)C(=O)N2CCCN2CCOCC2)c1OC (centres undefined)	-6.4%	-0.16	i
COc1ccc(NC(=O)c2ccccc2O)c(OC)c1	0.9%	·	i
CC1=CCC2C(=O)N(Cc3ccccc3)C(=O)C2C1 (centres undefined)	-1.3%	·	i
COc1ccc(-c2nnc(NC(=O)C(C)C)s2)c(OC)c1	-0.1%	-0.88	i
COc1ccc(C)cc1NC(=O)c1nnn(Cc2cc(C)ccc2C)c1N	1.0%	0.36	i
Cn1c(-c2ccc(C(=O)c3ccccc3)s2)nc2ccccc21	4.7%	0.03	i
COc1ccc(-c2nnc(SCC(=O)Nc3cc(C)on3)n2C)cc1OC	-0.6%	-0.71	i
CN(C)C(=O)CSc1nnc([C@H](Cc2c[nH]c3ccccc23)NC(=O)OC(C)(C)C)o1	1.9%	-0.55	i
Cc1ccnc(NS(=O)(=O)c2ccc(N=CC3=C(O)CC(C)(C)CC3=O)cc2)n1	-0.2%	-0.07	i
O=C1CC(c2ccc(S(=O)(=O)NC3CC3)cc2)CN1 (centres undefined)	-2.8%	-0.51	i
Cc1ccccc1OCCN1C(=O)c2ccccc2C1=O	1.9%	-0.47	i
COCCNC(=O)CCSc1nc(-c2ccc(OC)cc2)cc(C(F)(F)F)n1	1.2%	·	i
Cn1c2ccc(CC(=O)O)cc2c2cc(CC(=O)O)ccc21	-5.4%	-0.44	i
Fc1ccc(-c2cc(C(F)(F)F)nc(NCC3CCCO3)n2)cc1 (centres undefined)	2.0%	-0.64	i
CCOC(=O)c1cnc(-n2nc(C)cc2C)nc1Nc1ccc2c(c1)OCO2	8.8%	1.5	i
CC(=O)Nc1ccc(Oc2ccc3nc(C)[nH]c3c2)cc1	-4.6%	-0.34	i
CC1CCCCC1NC(=O)Cn1nc(-c2ccccc2)ccc1=O (centres undefined)	1.1%	-0.51	i
O=C(c1nc2ncccn2n1)N1CCN(c2ccccc2)CC1	2.7%	-1.3	i

# Compounds from the list above that have a cyano group, in the order listed:
Molecule	Hsc70	WNV protease inh	MT1-MMP reporter
CC(C)Cc1nc(N2CCCCC2)c(C#N)c2c1CCC2	-6.7%	-0.32	i
Cc1c(CCC#N)c(N2CCCCC2)n2c(nc3ccccc32)c1C#N	-40%	-1.3	i
C=C(C)CSc1nc(N)c(C#N)c(-c2ccc(C)cc2)c1C#N	0.9%	-0.27	i
CCCC(=O)Nc1sc2c(c1C#N)CCCC2	-3.2%	-0.06	i

# Additional entries
Molecule	Hsc70	WNV protease inh	MT1-MMP reporter
Nc1ccc2oc(-c3cc(Br)ccc3Cl)nc2c1	-2.0%	-0.4	i
O=C(COC(=O)Cc1ccc(S(=O)(=O)N2CCCCC2)s1)Nc1ccc2c(c1)OCO2	-15%	0.9	i
CCc1ccc(CNCc2cccnc2)cc1	0.1%	-0.03	i
O=C1Nc2ncccc2OC1CCO (centres undefined)	1.5%	·	i
CCOc1ccccc1N(C(=O)Cn1nnnc1-c1ccc(C)o1)C(CC)C(=O)NC(C)(C)C (centres undefined)	-2.0%	0.74	i
CC(C)CCNC(=O)CN(C(=O)CCC(=O)Nc1ccccn1)c1ccc2c(c1)OCO2	-0.7%	-0.02	i
O=C(NCCN1CCOCC1)c1cn(-c2ccccc2)nc1-c1cccs1	-11%	·	i
Cc1ccc(NC(=O)Cn2nnc(C(=O)NCc3cccs3)c2N)cc1	-0.7%	-0.24	i
CCCCC(=O)NC1(C(F)(F)F)C(=O)Nc2c1c(=O)n(C)c(=O)n2C (centres undefined)	0.5%	0.86	i
CCCCOc1ccccc1C1C(C(N)=O)=C(C)Nc2nnnn21 (centres undefined)	0.9%	0.39	i
CCOc1cc(/C=C2/C(=O)ON=C2C)ccc1OCc1ccccc1F	2.6%	·	i
Fc1ccc(CSc2ncnc3c2oc2ccccc23)cc1	-5.0%	-0.88	i
COc1ccc(C)cc1NC(=O)CCS(=O)(=O)c1cccc2nonc12	0.3%	·	i
Cc1nnc2n(-c3ccccc3)c(=O)c3c4c(sc3n12)CCCC4	-0.4%	0.95	i
CCCCNC(=O)N(C)c1nncnc1C(=O)NC	-3.3%	-0.29	i
O=C(NCCc1ccccc1)c1ccco1	1.3%	·	i
O=C(NCc1ccc2c(c1)OCO2)c1cccc(S(=O)(=O)N2CCCCC2)c1	-3.8%	-1.2	i
Cc1ccc(N=C(NO)c2nonc2N)cc1	-2.4%	·	i
COc1cc(C(=O)N2CCN(c3cccc(C)c3C)CC2)cc(OC)c1OC	-2.9%	-0.0065	+
CN(C(=O)c1ccc2c(c1)OCO2)C1(C(=O)NC2CCCCC2)CCCCC1	-9.4%	0.99	i
CC(=O)Nc1ccc(OCC(O)CN2CCN(c3ccccc3Cl)CC2)cc1 (centres undefined)	1.3%	·	i
CCOC(=O)CCNC(=O)Nc1ccc2nc(C)n(Cc3ccc(Cl)cc3)c(=O)c2c1	-1.0%	0.07	i

# Reprinted at random: 2 entries already listed.
Molecule	Hsc70	WNV protease inh	MT1-MMP reporter
CC(=O)CC(=O)Nc1ccccc1NC(C)=O	2.9%	-0.85	i
CCC(=O)Nc1cccc(NC(=O)CSc2nnc(-c3ccc(NS(C)(=O)=O)cc3)n2C)c1	3.8%	-0.41	i
